High-throughput results (PubChem BioAssay)
Vaccinia Venus: inhibitors of vaccinia virus (Venus reporter); Vaccinia virus Venus reporter expression, fluorescence; Potency, µM (series often up to 36.5 µM), for inactives: at the top dose activity change, negative = inhibition, actives largely listed as inhibitors; actives 0.46% (n = 330,000); AID 720580; active means well fitted inhibition curve with a large enough effect; inconclusive means small, poorly fitted or top-dose-only effect; inactive means no such curve, though single readings can be large or run the other way; tested in A549 cells; also: nearly all actives have a fitted effect of over 30% in size; inactives centre near -10
Vaccinia mCherry: inhibitors of vaccinia virus infection (mCherry reporter signal); Potency, µM (top dose mostly 36.5 µM), for inactives: at the top dose activity change, negative = inhibition, most hits filed as inhibitors; Vaccinia virus mCherry reporter infection, fluorescence; about a quarter of the inactives have no number; actives 0.63% (n = 310,000); active = well fitted inhibition curve with a large enough effect; inconclusive = small, poorly fitted or top-dose-only effect; inactive = no such curve, though single readings can be large or run the other way; tested in A549 cells; also: nearly all actives have a fitted effect of over 35% in size; inactives centre near -10
* hit, by the source's call; i = inactive; ? = inconclusive; . = not tested or not shown; & = joins results of further samples; [ ] = another dose, or the depositor's remark. % is scaled to controls: 0 for no effect and ±100 for the full control effect; potency is read from the fitted curve at half-maximal effect.

Nn1cnnc1N/N=C/c1cc([N+](=O)[O-])c(Cl)cc1Cl
  Vaccinia Venus = -10%	Vaccinia mCherry = -1%

COc1ccc(-c2sc(Nc3ccccc3)n[n+]2-c2ccc(F)cc2)c(OC)c1OC
  Vaccinia Venus = -9%	Vaccinia mCherry = i

CCOC(=O)c1cnc2c(C)cccc2c1Nc1ccc(OC(C)C)cc1
  Vaccinia Venus = -7%	Vaccinia mCherry = -12%

COc1ccc(Cn2ccc3nc(C)c(C(=O)Nc4ccc(OC(F)(F)F)cc4)cc3c2=O)cc1
  Vaccinia Venus = ?	Vaccinia mCherry = -21%

Cc1cccc(C(C)C)c1-n1nnnc1-c1ccccc1
  Vaccinia Venus = -14%	Vaccinia mCherry = -13%

Cc1ccc(C)c(NC(=O)CSc2ccc3nc(-c4ccccc4)cn3n2)c1
  Vaccinia Venus = -25%	Vaccinia mCherry = -16%

Cc1csc(NC(=O)c2oc3ccccc3c2C)n1
  Vaccinia Venus = -15%	Vaccinia mCherry = -25%

Cn1c(=O)c2c(ncn2CC(=O)OCC(=O)Nc2ccc(Cl)cc2Cl)n(C)c1=O
  Vaccinia Venus = -7%	Vaccinia mCherry = i

Cc1ccc(NNC(=O)C(O)(c2cccc(C(F)(F)F)c2)c2cccc(C(F)(F)F)c2)cc1
  Vaccinia Venus = ?	Vaccinia mCherry = ?

CCCN(CCC)C(=O)C1CCN(c2ccc(S(=O)(=O)N3CCOCC3)cc2[N+](=O)[O-])CC1
  Vaccinia Venus = -19%	Vaccinia mCherry = -28%

Cc1noc2ncnc(Oc3ccccc3)c12
  Vaccinia Venus = -16%	Vaccinia mCherry = .

COc1ccc(Cl)cc1NC(=O)C(C)N1CCN(C/C=C/c2ccccc2)CC1 (centres undefined)
  Vaccinia Venus = -27%	Vaccinia mCherry = .

CCCCN1CC(=O)N2[C@H]3c4cc(C)ccc4OC[C@@H]3[C@H](C(=O)OCC)[C@]2(C)C1=O
  Vaccinia Venus = -18%	Vaccinia mCherry = i

COc1ccc(N2C(=O)CC(Nc3cccc(C(C)=O)c3)C2=O)cc1OC (centres undefined)
  Vaccinia Venus = -1%	Vaccinia mCherry = -10%

CC(=O)c1c(N2CCN(c3cccc(Cl)c3)CC2)nc(=S)n(-c2ccccc2)c1C
  Vaccinia Venus = -15%	Vaccinia mCherry = -6%

Cc1ccc2[nH]c(O)c(N=Nc3ccccc3C)c2c1
  Vaccinia Venus = 1%	Vaccinia mCherry = ?

Cc1ccc(S(=O)(=O)NCCC(=O)Nc2ccc(Cl)cc2C(=O)c2ccccc2)cc1
  Vaccinia Venus = -16%	Vaccinia mCherry = ?

O=C1c2cccc3c2C2(O)c4c1cccc4C(=O)c1cccc(c12)C3=O
  Vaccinia Venus = -2%	Vaccinia mCherry = -6%

COc1ccc(Cl)cc1NC(=S)NCCc1ccc(S(N)(=O)=O)cc1
  Vaccinia Venus = -11%	Vaccinia mCherry = -22%

CCOC(=O)COc1c(Br)cc(/C=C2\SC(=O)N(CC(=O)N3CCCC3)C2=O)cc1OC
  Vaccinia Venus = 3%	Vaccinia mCherry = -7%

COc1ccc(CCNC(=O)C2CCN(Cc3nc(-c4ccc(Cl)cc4)oc3C)CC2)cc1OC
  Vaccinia Venus = -6%	Vaccinia mCherry = -1%

Cc1ccccc1-n1c(SCc2c(C)noc2C)nnc1-c1cccnc1
  Vaccinia Venus = -11%	Vaccinia mCherry = .

Cc1c(C(=O)OCC(=O)NCC2CCCO2)cccc1[N+](=O)[O-] (centres undefined)
  Vaccinia Venus = -8%	Vaccinia mCherry = i

CC(Nc1cc(C)cc(C)c1)=[N+](C)CCNS(=O)(=O)c1ccc(Cl)cc1
  Vaccinia Venus = -12%	Vaccinia mCherry = ?

CCCN1C(=O)C(O)(CC(=O)c2ccc(OC)c(OC)c2)c2ccccc21 (centres undefined)
  Vaccinia Venus = -15%[7.34 µM]	Vaccinia mCherry = -6%[7.34 µM]

O=C(Nc1nc(-c2ccccc2)cs1)C1CCCCN1S(=O)(=O)c1ccccc1 (centres undefined)
  Vaccinia Venus = -28%	Vaccinia mCherry = -19%

O=C(Nc1nnc(-c2cccs2)o1)c1ccc(S(=O)(=O)N2CCOCC2)cc1
  Vaccinia Venus = ?	Vaccinia mCherry = ?

Nc1ncnc2c1ncn2[C@@H]1O[C@H](CO)[C@@H](O)[C@H]1O
  Vaccinia Venus = 0%	Vaccinia mCherry = -12%

Cc1ccc(-n2[nH]c(C)c(/C=N/c3cccc(C)n3)c2=O)cc1
  Vaccinia Venus = 9%	Vaccinia mCherry = -9%

COc1ccccc1NC(=O)CCc1nnc2ccc(N3CCCCC3)nn12
  Vaccinia Venus = -17%	Vaccinia mCherry = -25%

CCN(CC)CCCn1c2c(c(SCC(=O)Nc3cccc(C)c3C)nc1=O)CCC2
  Vaccinia Venus = -5%	Vaccinia mCherry = -10%

COc1ccc(NC(=O)c2cc(S(=O)(=O)N3CCCC(C)C3)cn2C)c(OC)c1 (centres undefined)
  Vaccinia Venus = -2%	Vaccinia mCherry = 4%

Oc1cc2c(cc1C(c1ccc(Cl)c(Cl)c1)N1CCCC1)OCO2 (centres undefined)
  Vaccinia Venus = -7%	Vaccinia mCherry = ?

NS(=O)(=O)c1ccc(N=Nc2nc3[nH]cnc(=S)c3[nH]2)cc1
  Vaccinia Venus = ?	Vaccinia mCherry = ?

Cc1ccc2c(c1)N(CC(=O)O)C(=O)CO2
  Vaccinia Venus = -9%	Vaccinia mCherry = -11%

CCOc1ccc(S(=O)(=O)c2cn(Cc3ccccc3)c3ccc(OCC)cc3c2=O)cc1
  Vaccinia Venus = -3%	Vaccinia mCherry = 1%

O=c1c2ccccc2n2c(-c3cccc(Cl)c3)nnc2n1Cc1ccccc1
  Vaccinia Venus = -12%	Vaccinia mCherry = -21%

COc1cc(NC(=O)CSc2nnnn2-c2ccccc2)cc(OC)c1OC
  Vaccinia Venus = -21%	Vaccinia mCherry = .

COc1cc(/C(C)=N/NC(=O)c2ccc(CSc3nncn3C)cc2)cc(OC)c1OC
  Vaccinia Venus = -6%	Vaccinia mCherry = -11%

NCCCCCc1cn([C@@H](CO)C(=O)NCCCCCCCCCCC(=O)N2CCNCC2)nn1
  Vaccinia Venus = -11%	Vaccinia mCherry = i

O=C(O)c1ccc(OC2CSC2)cc1
  Vaccinia Venus = -3%	Vaccinia mCherry = .

O=C(NCC1CCCO1)c1cc2ccccc2cc1O (centres undefined)
  Vaccinia Venus = -15%	Vaccinia mCherry = -18%

Cc1cc(/C=C/c2ccccc2)nc2ccccc12
  Vaccinia Venus = ?	Vaccinia mCherry = -9%

CCN(CC(=O)NCC1CCCO1)S(=O)(=O)c1ccc2ccccc2c1 (centres undefined)
  Vaccinia Venus = ?	Vaccinia mCherry = -9%

Oc1cccc(C2c3[nH]c4ccccc4c3CCN2Cc2ccc3c(c2)CCO3)c1 (centres undefined)
  Vaccinia Venus = ?	Vaccinia mCherry = ?

Cc1ccc(/C(O)=C2\C(=O)C(=O)N(c3cc(C)on3)C2c2cccc(Cl)c2)cc1 (centres undefined)
  Vaccinia Venus = -4%	Vaccinia mCherry = .

CC1(C(=O)NS(=O)(=O)Cc2cccc(Cl)c2)CCN1C(=O)C/C=C/c1ccccc1 (centres undefined)
  Vaccinia Venus = -2%	Vaccinia mCherry = -6%

COc1ccc(CNc2cc(-c3ccc(OC)cc3)nc3nncn23)cc1
  Vaccinia Venus = -13%	Vaccinia mCherry = -25%

O=C(CSc1ncc2c(n1)-c1ccccc1N(Cc1ccc(F)cc1)S2(=O)=O)NCc1ccccc1
  Vaccinia Venus = -20%	Vaccinia mCherry = -19%

Cc1ccccc1NC(=O)Cc1nc(COC(=O)CNS(=O)(=O)c2cccc(Br)c2)cs1
  Vaccinia Venus = -16%	Vaccinia mCherry = -14%

Fc1cccc(NC(=S)NCCN2CCOCC2)c1
  Vaccinia Venus = -16%	Vaccinia mCherry = i

O=C(CC1NCCNC1=O)OCc1ccccc1 (centres undefined)
  Vaccinia Venus = -6%	Vaccinia mCherry = .

O=C(CSC1=Nc2ccccc2C2=NC(c3ccccc3)C(=O)N12)NCC1CCCO1 (centres undefined)
  Vaccinia Venus = -7%	Vaccinia mCherry = -13%

C=CCN1C=C2C(=O)C(C)(OC(=O)c3cnc4ccccc4n3)C(=O)C=C2C=C1/C=C/COC (centres undefined)
  Vaccinia Venus = -16%	Vaccinia mCherry = -13%

COC(=O)CCC(=O)OC1(C)C(=O)C2=CN(CCc3ccccn3)C(c3ccc(OC)cc3)=CC2=C(Br)C1=O (centres undefined)
  Vaccinia Venus = 11%	Vaccinia mCherry = 5%

O=C(CNC(=O)c1ccco1)OCC(=O)c1ccc(Br)cc1
  Vaccinia Venus = -5%	Vaccinia mCherry = i

Cn1ncc([N+](=O)[O-])c1C(=O)Nc1ccn(Cc2ccccc2F)n1
  Vaccinia Venus = 0%	Vaccinia mCherry = -15%

CCn1c(SCC(=O)c2ccc(Cl)cc2)nnc1-c1ccoc1C
  Vaccinia Venus = -1%	Vaccinia mCherry = -14%

C[C@@H]1CNC(=O)c2c(C(=O)NC3CCN(C(=O)OC(C)(C)C)CC3)ncn21
  Vaccinia Venus = -3%	Vaccinia mCherry = 19%

CNC(=S)NNC(=O)Cc1ccc(OC)cc1
  Vaccinia Venus = -7%	Vaccinia mCherry = i

CC(=O)NC1C(=O)N=C(SCC(=O)Nc2c(C)cccc2C)NC1=O (centres undefined)
  Vaccinia Venus = 0%	Vaccinia mCherry = 3%

CC(=O)c1ccc(S(=O)(=O)NCc2ccc(C(=O)N(C)CC(=O)Nc3cccc(F)c3)cc2)cc1
  Vaccinia Venus = -7%	Vaccinia mCherry = i

C=CCOC(=O)C1=C(C)OC(N)=C(C#N)C12C(=O)N(CN1CCOCC1)c1ccccc12 (centres undefined)
  Vaccinia Venus = -4%	Vaccinia mCherry = -18%

COc1cc(C(=O)NCCc2cn3ccccc3n2)cc(OC)c1OC
  Vaccinia Venus = 2%	Vaccinia mCherry = -7%

CCn1c(=O)c(=O)[nH]c2cc(C(=O)NC3CC3)ccc21
  Vaccinia Venus = -1%	Vaccinia mCherry = -8%

CCCCNC(=O)NCC(=O)Nc1ccc(F)c(F)c1
  Vaccinia Venus = -8%	Vaccinia mCherry = -13%

Cc1cc(C)c2c(=O)[nH]c(SCC(=O)N(C)C)nc2n1
  Vaccinia Venus = -18%	Vaccinia mCherry = -15%

CCN(CC)c1sc(S(=O)(=O)c2ccccc2)nc1S(=O)(=O)c1ccc(C)cc1
  Vaccinia Venus = -21%	Vaccinia mCherry = -18%

O=C(NCCOc1ccccc1)c1cc([N+](=O)[O-])ccc1N1CCOCC1
  Vaccinia Venus = -22%	Vaccinia mCherry = -9%

Cc1ccccc1NC(=O)CN1CCC(n2nnc3ccccc32)CC1
  Vaccinia Venus = -15%	Vaccinia mCherry = -17%

Nc1ccc(Oc2ccc3c(c2)OCO3)cc1
  Vaccinia Venus = 4%	Vaccinia mCherry = -15%

O=C(CCN1CCN(C(c2ccccc2)c2ccccc2)CC1)N/N=C/c1ccc(O)cc1
  Vaccinia Venus = -10%	Vaccinia mCherry = -9%

CCCSC1=C(C#N)C(c2cccs2)C(C(=O)Nc2ccccc2)=C(C)N1 (centres undefined)
  Vaccinia Venus = ?	Vaccinia mCherry = .

COC(=O)c1ccc(N2C(=O)C3C4C=CC(CC4)C3C2=O)cc1 (centres undefined)
  Vaccinia Venus = -19%	Vaccinia mCherry = -13%

CCN(CC)Cc1c[nH]c2ccccc12
  Vaccinia Venus = -19%	Vaccinia mCherry = .

CNC(=S)N(Cc1ccc(OC)cc1)C1CC(=O)N(c2ccc(OC)cc2)C1=O (centres undefined)
  Vaccinia Venus = -11%	Vaccinia mCherry = .

Cc1[nH]c2c(C)cccc2c1CCNC(=O)c1ccc2c(c1[N+](=O)[O-])C(=O)c1ccccc1C2=O
  Vaccinia Venus = 89%[activator]	Vaccinia mCherry = -2%

COC(=O)c1cc(C(=O)OC)cc(N2C(=O)CC(NNC(=O)c3ccc(C)cc3)C2=O)c1 (centres undefined)
  Vaccinia Venus = -8%	Vaccinia mCherry = i

Cc1cccc(CC(=O)NCc2nc3cccnc3n2Cc2ccc(F)cc2)c1
  Vaccinia Venus = -7%	Vaccinia mCherry = -12%

CCc1ccc(C(=O)NNc2ccccc2F)cc1
  Vaccinia Venus = -3%	Vaccinia mCherry = ?

Cc1cccnc1C(NC(=O)C1CCN(CCOc2ccc(Cl)cc2Cl)CC1)c1ccc(Cl)cc1 (centres undefined)
  Vaccinia Venus = ?	Vaccinia mCherry = ?

C=C1[C@H](C)CN(S(=O)(=O)C(C)(C)C)[C@H]1CCO
  Vaccinia Venus = -13%	Vaccinia mCherry = -12%

S=c1[nH]nc(-c2ccco2)n1-c1ccc(Cl)cc1
  Vaccinia Venus = -12%	Vaccinia mCherry = i

COc1cc2c(cc1OC)-c1cc(Nc3ccccc3Br)nc(=O)n1CC2
  Vaccinia Venus = -20%	Vaccinia mCherry = i

Cc1cc(C(=O)NCCN2CCN(c3cccc(Cl)c3)CC2)n(-c2ccccc2)n1
  Vaccinia Venus = -17%	Vaccinia mCherry = ?

COc1cccc(C(O)c2ncc(-c3cccc(F)c3)[nH]2)c1 (centres undefined)
  Vaccinia Venus = -9%	Vaccinia mCherry = i

CCN(CC(=O)N1CCC(C(N)=O)CC1)S(=O)(=O)c1ccc(Cl)cc1
  Vaccinia Venus = -5%	Vaccinia mCherry = i

Cc1nc(SCC(=O)N2CCN(c3ccccn3)CC2)c(C#N)c(C)c1C
  Vaccinia Venus = 0%	Vaccinia mCherry = -3%

COc1ccc(SC[C@H](Cc2ccccc2)N2CC[C@@H](O)CCC2=O)cc1
  Vaccinia Venus = -8%&-8%	Vaccinia mCherry = -14%
